Screening data as filed in PubChem.
HIV Env fusion = blocks HIV Env-driven cell-cell fusion; hit rate 1.1% among 360,000; inhibition, % at 12.3 µM; HeLa-JRFL Env/CEM21 cell fusion, luciferase;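 active = mean replicate inhibition score of at least 50 and every replicate individually at or above 50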;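 also: 0% = plate neutral controls and 100% = maraviroc near 300 nM; one replicate is shown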
eIF4H inh = inhibitors of RNA binding by human eIF4H | Q15056 | eIF4H fluorescence polarization binding assay | inhibition, % at 35 µM | hit rate 0.94% among 290,000;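 active = 50% or more with normal probe brightness, or confirmed in later tests; about a fifth of its hits are not listed in these tables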;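 also: calls also rest on retests at 20 µM and on dose response follow-up; 0% = protein and probe with vehicle and 100% = probe without protein; strong numbers were not always called active; many hits fall short of the cut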
Rce1 inh = blocks yeast Ras-converting enzyme; Q03530; yeast membranes, quenched prenylated peptide cleavage fluorescence; calls only; hit rate 0.27% among 290,000;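 active = fall in fluorescence gain of 50% or more versus controls, with final raw signal at or below 3038400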;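 also: plate controls were neutral control wells for no effect and wells lacking membranes for full effect; tested at 10 µM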
UUG fidelity = yeast start codon fidelity modulation; hit rate 0.13% among 350,000; activity score, % at 18.7 µM; S. cerevisiae UUG-firefly luciferase reporter, luminescence/redox ratio; AID 602363;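 active = replicate mean at a twofold rise or more, about +100% in these data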;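 also: firefly luciferase made from a UUG start codon reports start codon fidelity; reporter light over untreated wells divided by growth signal over untreated wells; some hits fall short of that in this replicate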
CSC inhib = cancer stem cell inhibition; inhibition, % at 7.5 µM; cancer stem cell-like cells viability, luminescence; hit rate 1.1% among 300,000;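 active = mean at 75% or more and at least half the replicates too; tested in HMLE shEcad cells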;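 also: 0% = median of negative and 100% = median of positive control wells; the first replicate is given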
PABP polyA inh = blocks human PABP binding to poly(A) RNA; AID 2014; fluorescence polarization; inhibition, % at 35 µM; hit rate 1% among 290,000; P11940;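 active = 50% or more with normal probe brightness, or confirmed in later tests; about a fifth of its hits are not listed in these tables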;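 also: calls also rest on retests at 20 µM and on dose response follow-up; controls were probe without protein and protein plus probe with vehicle; some compounds called inactive have numbers as strong as hits; many hits fall short of the cut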
Target sequence (P11940 whole entry, looked up): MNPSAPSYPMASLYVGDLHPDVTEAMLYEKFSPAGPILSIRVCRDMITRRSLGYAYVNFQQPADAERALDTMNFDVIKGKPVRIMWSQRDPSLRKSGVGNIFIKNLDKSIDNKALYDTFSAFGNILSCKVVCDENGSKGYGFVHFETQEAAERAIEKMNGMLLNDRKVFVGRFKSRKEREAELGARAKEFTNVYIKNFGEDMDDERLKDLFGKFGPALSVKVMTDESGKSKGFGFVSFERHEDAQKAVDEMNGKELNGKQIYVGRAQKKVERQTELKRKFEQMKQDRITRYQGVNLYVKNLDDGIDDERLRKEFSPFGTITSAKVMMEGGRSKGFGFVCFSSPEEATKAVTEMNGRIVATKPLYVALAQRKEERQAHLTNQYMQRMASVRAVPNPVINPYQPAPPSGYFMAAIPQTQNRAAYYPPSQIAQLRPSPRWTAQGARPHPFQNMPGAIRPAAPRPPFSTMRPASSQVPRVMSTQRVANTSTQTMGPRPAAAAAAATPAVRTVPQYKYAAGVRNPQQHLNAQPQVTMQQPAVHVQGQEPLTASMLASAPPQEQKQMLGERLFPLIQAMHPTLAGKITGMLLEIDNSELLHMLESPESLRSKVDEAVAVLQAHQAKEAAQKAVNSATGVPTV
MT1-MMP act inh = inhibitors of human MT1-MMP activation; AID 651647; HT1080 RFP-PRO-GFP cells, GFP/RFP ratio fluorescence, overnight; percent of plate control window, DMSO zero; P50281; hit rate 0.061% among 360,000; GFP/RFP ratio change, % at 20 µM;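 active = GFP/RFP ratio change of at least 30% with cell ATP level not reduced by more than half and red fluorescence within 50% of control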; also: strong numbers were not always called active
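Test system: HT1080 cells expressing an RFP-PRO-GFP fluorescent reporter construct / Compound dosing: single-point 20 µM compound, 1% DMSO / Schedule: cells overnight before dosing, compound overnight, 37 °C, 5% CO2 / Evaluation: GFP/RFP fluorescence ratio / Control set: DMSO and RFP-L50D-GFP cell wells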
eIF4H inh retest = also measured in eIF4H inh; calls as there; inhibition, %; compound at 20 µM; confirmation average;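 mean of two retest wells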
PABP polyA inh retest = also measured in PABP polyA inh; calls as there; inhibition, %; compound at 20 µM; confirmation repeats;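 mean of two retest wells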
MT1-MMP act inh RFP = recorded beside MT1-MMP act inh, whose call it bears; RFP signal change, %; measured here: RFP expression control read;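 0 = vehicle wells; hits needed this value within 50% of zero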
* marks the source's active call; other numbers are inactive results; i = inactive; . = no result given.

SMILES | HIV Env fusion | eIF4H inh | Rce1 inh | UUG fidelity | CSC inhib | PABP polyA inh | MT1-MMP act inh | MT1-MMP act inh RFP | others
Cc1cnc(C(=O)OCC(=O)c2ccccc2)cn1 | -4 | . | i | . | -6 | . | 3 | 2
CCN(CC(=O)Nc1c(F)cccc1F)C(=O)/C=C/c1ccc2c(c1)OCO2 | -23 | . | i | -17 | -4 | . | 1 | -1
COc1cc(NC(=O)CSc2ncccc2C(=O)OC(C)C)cc(OC)c1 | -15 | 46 | i | 9 | -5 | 13 | -4 | -5
O=C(Nc1ccc(C(F)(F)F)cn1)Nc1cccs1 | -26 | -4 | i | -8 | -2 | -8 | 1 | -4
COc1ccc2cc(C(=O)Nc3c(C)n(C)n(-c4ccccc4)c3=O)sc(=O)c2c1OC | . | -6 | i | 3 | -13 | -3 | -2 | 3
CCCCOc1ccc(C(=O)N/N=C/c2cn[nH]c2-c2ccc(OC)c(OC)c2)cc1 | 14 | -4 | i | -14 | . | 0 | 1 | 3
COc1ccc2nc(NC(=O)CCc3nc(-c4ccccc4F)no3)sc2c1 | . | 1 | i | -11 | . | -5 | 3 | 2
Cc1ccc(S(=O)(=O)Nc2ccc(-c3nnc(SCC#N)n3C)cc2)cc1 | -279 | 1 | i | -11 | -1 | 3 | -2 | -2
O=C(CC[C@H]1O[C@@H](n2ccc(=O)[nH]c2=O)[C@H](O)[C@@H]1O)NCCN1CCOCC1 | -60 | . | . | -2 | . | . | 2 | 2
CC1CCCC/C1=N\NC(=S)NCCc1ccccc1 (configuration not stated) | 3 | -4 | i | . | -6 | -2 | 0 | -2
CC1CCCCN1CC(=O)Nc1ccccc1Sc1ccccc1 (configuration not stated) | 2 | -2 | i | -31 | 18 | -8 | -5 | -7
COc1ccc(C(=O)CSc2ccc(-c3ccccc3)nn2)cc1 | -28 | -12 | i | -5 | -9 | -1 | 4 | 3
COc1ccccc1-c1coc2cc(OCC(=O)OCc3ccccc3)ccc2c1=O | 4 | -10 | i | . | 5 | 3 | 3 | 7
CCN(CC)S(=O)(=O)c1ccc2c(c1)N(CC(=O)N1CCC(C(N)=O)CC1)C(=O)CO2 | -6 | . | i | -11 | 2 | . | 1 | 2
O=C(CCn1cnnn1)Nc1cccc(F)c1 | 10 | 1 | i | . | -4 | -3 | 2 | 6
CCN(CC)C(=O)CCNS(=O)(=O)c1ccc(C)cc1 | -75 | -4 | i | -11 | 11 | -6 | 2 | 0
CCN1CCN(C(=O)c2cc3c(s2)-c2c(C)cccc2OC3)CC1 | . | 6 | i | -1 | 27 | 1 | 5 | 1
O=C(Nc1ccccc1)Nc1cccc2cccnc12 | -165 | -4 | i | . | 1 | -12 | -5 | -7
COc1cc(C(=O)N2CCN(c3ccccc3O)CC2)ccc1OCC(=O)N1CCOCC1 | . | . | . | -20 | -9 | . | 1 | -2
CC1=NN(C(C)C)C(=O)C1 | . | 5 | i | -22 | -6 | 13 | -2 | -1
CCOc1ccc(CCNC(=O)CCC(=O)c2cccs2)cc1OCC | -25 | . | . | -16 | -11 | . | 0 | 6
Cc1ccc(Cl)cc1NC(=O)CC1NC2CCCCC2NC1=O (configuration not stated) | 6 | -6 | i | -30 | 60 | 7 | 3 | 0
CC1CCCC(C)N1C(=O)COC(=O)c1ccccc1C(=O)c1ccccc1 (configuration not stated) | -4 | . | . | 5 | . | . | 0 | 3
Cc1ccc(NC(=O)C2CCN(C(=O)c3cccs3)CC2)c(C)c1 | 0 | . | i | -13 | 15 | . | -2 | 3
CCOc1ccc2nc(SCC(=O)NCc3ccc(OC)cc3)[nH]c2c1 | -7 | 5 | i | -19 | -4 | 1 | 2 | -2
Cc1cnc(NC(=O)c2ccc(Cl)nc2)s1 | -10 | 85 | i | -9 | 4 | 5 | 6 | -3 | eIF4H inh retest=-2;PABP polyA inh retest=4
CCOC(=O)C1(Cc2cccc(OC)c2)CCN(Cc2cccn2-c2ccccn2)CC1 | -12 | 4 | i | 5 | -1 | -5 | -1 | -1
NCCNc1ccc([N+](=O)[O-])cc1 | -4 | -7 | i | . | -3 | 2 | -2 | 2
COc1cccc(NC(=O)COC(=O)c2ccccc2F)c1 | . | -5 | i | 0 | -15 | 4 | 0 | 2
O=C1C2CCCCC2C(=O)N1c1ccc(NC2CCCCC2)c([N+](=O)[O-])c1 (configuration not stated) | 4 | -4 | i | . | 59 | -14 | 12 | 3
Cc1nonc1OCCNC(=O)C12CC3CC(CC(C3)C1)C2 | 6 | -17 | i | . | 0 | -9 | -1 | 1
CC1(C)C2CCC(C2)C1(C)NC(=O)CN1CCN(Cc2ccccc2)CC1 (configuration not stated) | 16 | 8 | i | . | -11 | -11 | 1 | 3
CC(C)(C)OC(=O)C[C@H]1C/C=C\C[C@H](CC(=O)N(CCO)Cc2ccccc2)C(=O)N[C@H](C(C)(C)C)COC1=O | -8 | . | . | 5 | 0 | . | 1 | 0
CCN(CC)C(=O)CS(=O)(=O)CC(=O)Nc1cc(OCCOC)c(Cl)cc1Cl | 10 | -3 | . | . | -2 | 1 | -3 | 1
O=C(CN1C(=O)C2CC=CCC2C1=O)Nc1cc(C(F)(F)F)ccc1N1CCCC1 (configuration not stated) | 9 | . | i | . | -20 | . | -3 | 0
CCc1ccccc1N(CC(=O)N/N=C/c1ccc(OC(=O)OC)c(OC)c1)S(C)(=O)=O | . | -1 | i | 9 | -5 | 10 | 4 | 0
Cc1ccc(N2C(=O)N(CC(=O)Nc3ccc([N+](=O)[O-])cc3)C(=O)C2C)cc1 (configuration not stated) | -18 | -14 | i | -11 | . | -6 | -1 | -3
O=C(c1ccccn1)N1CCN(S(=O)(=O)c2ccccc2)CC1 | 3 | 16 | i | -3 | 1 | 8 | 2 | 7
COc1cc(C(C)=O)ccc1Oc1ncnc2c1cnn2-c1ccc(F)cc1 | . | 2 | i | -11 | -3 | -8 | -6 | -24
O=S(=O)(NCC1CCN(Cc2ccccc2)CC1)c1ccccc1C(F)(F)F | -26 | -4 | i | -7 | 19 | -7 | 1 | 1

Grouped by structure: those above with a thiophene ring, fused or not
SMILES | HIV Env fusion | eIF4H inh | Rce1 inh | UUG fidelity | CSC inhib | PABP polyA inh | MT1-MMP act inh | MT1-MMP act inh RFP | others
O=C(Nc1ccc(C(F)(F)F)cn1)Nc1cccs1 | -26 | -4 | i | -8 | -2 | -8 | 1 | -4
CCN1CCN(C(=O)c2cc3c(s2)-c2c(C)cccc2OC3)CC1 | . | 6 | i | -1 | 27 | 1 | 5 | 1
CCOc1ccc(CCNC(=O)CCC(=O)c2cccs2)cc1OCC | -25 | . | . | -16 | -11 | . | 0 | 6
Cc1ccc(NC(=O)C2CCN(C(=O)c3cccs3)CC2)c(C)c1 | 0 | . | i | -13 | 15 | . | -2 | 3

Further compounds follow.
SMILES | HIV Env fusion | eIF4H inh | Rce1 inh | UUG fidelity | CSC inhib | PABP polyA inh | MT1-MMP act inh | MT1-MMP act inh RFP | others
CC(=O)Nc1cccc(-c2nc3ccccc3s2)c1C | -11 | -10 | i | -4 | 1 | 10 | -2 | 2
CC(CN1CCCCC1)OC(=O)c1cc2ccccc2o1 (configuration not stated) | . | -5 | i | -20 | . | 3 | -2 | -2
Cc1ccc(CNC(=O)C2CCN(S(=O)(=O)c3ccc4c(c3)CC(C)N4C(=O)C3CCC3)CC2)o1 (configuration not stated) | -2 | -6 | i | 2 | 16 | -4 | -2 | -8
CC(=O)N1CCN(c2ccc(NC(=O)c3ccccc3Br)cc2Cl)CC1 | . | -5 | i | 14 | 1 | -3 | -2 | -6
O=C(NNc1nc(-c2ccccc2)c2cc(Br)ccc2n1)c1ccc(S(=O)(=O)N2CCCCC2)cc1 | -6 | 3 | i | . | 10 | 4 | -2 | -6
CC(C)(C)NC(=O)Cc1ccc(S(=O)(=O)N2CCCC2)s1 | . | 20 | i | 7 | -13 | 5 | 13 | 5
CC1(c2ccccc2)NC(=O)N(CC(=O)Nc2ccc3c(c2)OCO3)C1=O (configuration not stated) | -56 | -5 | i | -9 | -3 | 2 | -2 | 5
O=C(CNC(=O)c1ccc(F)cc1)c1ccc(Cl)cc1 | -75 | -5 | i | -14 | 6 | 9 | -1 | -4
CC(C)CNC(=O)c1ccccc1NC(=O)c1ccc(CSc2ccccc2)cc1 | 12 | -5 | i | -8 | 32 | -9 | -6 | -3
O=C(O)C1CCCN1S(=O)(=O)c1ccc(Br)s1 (configuration not stated) (tested in a mixture with another compound) | -5 | 1 | i | -10 | -6 | 6 | 1 | 5
Cc1nonc1NC(=O)CSc1nc(CCC2CCCC2)nc2ccccc12 | 8 | 7 | i | -26 | 38 | -2 | -1 | 0
CC(C)(C)C(=O)Nc1ccccc1C(=O)NCc1ccco1 | . | -14 | i | 6 | -3 | 16 | 2 | 3
CCOc1ccc(CNC(=O)CCC(=O)n2nc(C)c3ccccc32)cc1 | 7 | -3 | i | -8 | -12 | 11 | -5 | 2
Cc1ccn(-c2cc(O)c(-n3ccc(C)n3)cc2O)n1 | -2 | -10 | i | . | -8 | -36 | 4 | 1
Cc1cccc(N2NC(=O)/C(=C/c3ccc(-c4ccc(Cl)c(C(=O)O)c4)o3)C2=O)c1 | -17 | 73 | i | . | . | -12 | -5 | 5 | eIF4H inh retest=-5;PABP polyA inh retest=7
Cc1c(-c2ccccc2)c(=O)oc2ccc(O)cc12 | -7 | -3 | i | -12 | -13 | 3 | 1 | 1
COc1cc(NS(=O)(=O)c2ccc(N/C=C\C(=O)c3ccc(OC)c(OC)c3)cc2)nc(OC)n1 | 15 | -4 | i | -2 | 9 | -7 | -1 | 3
CN(CC(=O)Nc1ccccc1C(=O)NC1CC1)Cc1ccco1 | -19 | . | . | 2 | 10 | . | -4 | 0
Cc1cc(O)c(C=Nc2ccc(Cl)cn2)c(=O)o1 | . | 59* | i | -12 | -15 | 57* | -15 | 8
Cc1nn(-c2ccc(N3CCCCC3)nn2)c(C)c1CCC(=O)Nc1ccccc1F | -2 | -6 | i | -26 | -5 | 3 | 1 | -2
CN(C(=O)CCc1nnc(CCCCc2ccccc2)o1)C1CCOCC1 | 27 | 3 | i | . | 3 | -5 | 0 | 2
COC(=O)C1=C(NC(C)=O)CCS1 | 3 | -2 | i | . | 0 | 9 | 2 | 5

Looked up by structure from the list above (two):
SMILES | HIV Env fusion | eIF4H inh | Rce1 inh | UUG fidelity | CSC inhib | PABP polyA inh | MT1-MMP act inh | MT1-MMP act inh RFP | others
Cc1c(-c2ccccc2)c(=O)oc2ccc(O)cc12 | -7 | -3 | i | -12 | -13 | 3 | 1 | 1
CN(CC(=O)Nc1ccccc1C(=O)NC1CC1)Cc1ccco1 | -19 | . | . | 2 | 10 | . | -4 | 0

Not all compounds are listed, so the mix of outcomes need not match the whole.
